# MenB inh: Mtb MenB enzyme inhibition; AID 540299; MenB enzyme assay, absorbance read-out; some hits fall short of the stated cut; inhibition, %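 (about 12 µg/mL by stock and volumes)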; 0.43% of 100,000 active; P9WNP5;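 active = mean of two replicates above 30%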;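 note: 0% = no compound and 100% = wells with inactive enzyme; the first replicate is given; strong numbers were not always called active; inactives centre near -10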
# Target sequence (P9WNP5 whole entry, looked up): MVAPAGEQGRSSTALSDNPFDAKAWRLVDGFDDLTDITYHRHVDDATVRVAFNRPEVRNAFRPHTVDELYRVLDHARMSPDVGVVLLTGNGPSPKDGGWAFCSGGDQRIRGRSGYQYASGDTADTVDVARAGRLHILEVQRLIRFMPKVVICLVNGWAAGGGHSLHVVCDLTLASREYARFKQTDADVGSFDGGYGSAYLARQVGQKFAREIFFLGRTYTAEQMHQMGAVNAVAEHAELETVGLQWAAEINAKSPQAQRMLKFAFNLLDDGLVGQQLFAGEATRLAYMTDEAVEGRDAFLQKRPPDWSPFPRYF
# PV pol inh: poliovirus RNA polymerase inhibition. 0.66% of 150,000 active. poliovirus polymerase elongation, fluorescence polarization; hits give low values. P03300. AID 588519. % elongation, % (compound at 16.7 µg/mL); in the data active = % elongation below about 90%; note: some results filed as inactive read as strong as hits
# MbtI inh: MbtI salicylate synthase inhibition; AID 493033; purified MbtI enzyme, fluorescence intensity read-out; inhibition, %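 (about 17 µg/mL by stock and volumes)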; 0.89% of 100,000 active;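 active = above 50% in both replicates, above 80% if mildly self-fluorescent; inactive = the rest, strongly fluorescent compounds included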;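 note: 0% = mean of negative and 100% = mean of positive controls; one replicate is shown; some compounds called inactive have numbers as strong as hits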
# Target sequence (P9WFX0 whole entry, looked up): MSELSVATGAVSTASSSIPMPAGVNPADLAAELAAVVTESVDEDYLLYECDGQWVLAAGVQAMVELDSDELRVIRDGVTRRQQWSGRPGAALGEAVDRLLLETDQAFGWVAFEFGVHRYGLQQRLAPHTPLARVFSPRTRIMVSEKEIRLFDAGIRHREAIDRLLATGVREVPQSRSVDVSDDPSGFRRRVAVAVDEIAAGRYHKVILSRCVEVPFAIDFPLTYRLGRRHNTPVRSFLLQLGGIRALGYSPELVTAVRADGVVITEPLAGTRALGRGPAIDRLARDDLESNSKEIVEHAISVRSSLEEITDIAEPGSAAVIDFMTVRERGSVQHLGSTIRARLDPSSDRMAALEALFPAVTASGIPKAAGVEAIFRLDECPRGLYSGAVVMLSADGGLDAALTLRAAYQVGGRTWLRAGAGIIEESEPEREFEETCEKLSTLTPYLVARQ
# PV pol inh intensity: recorded beside PV pol inh, whose call it bears; % elongation; measured here: total intensity read-out; formula for this scale not given here;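 total fluorescence in place of polarization; lower means less elongation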
# The depositor's hits bear a star; nt = no result given.
# Short forms – A = MenB inh; B = PV pol inh; C = PV pol inh intensity; D = MbtI inh
Cc1noc(C)c1CSc1nnc(-c2ccc(F)cc2)c2ccccc12
  A = -2	B = 100	C = 105	D = -6
Cc1ccc2cccc(NC(=O)C(F)(F)F)c2n1
  A = 0	B = 98	C = 100	D = -4
CC(=O)Nc1ccc(N2C(=O)CSC2c2ccccc2)cc1 (configuration not stated)
  A = -15	B = 101	C = 103	D = 2
O=C1CC(c2ccccc2)CC(O)=C1C=NCCN1CCOCC1 (configuration not stated)
  A = -18	B = 100	C = 104	D = -1
CC(C)n1c(O)c(N=NC(=S)NC2CCCCC2)c2ccccc21
  A = -71	B = 104	C = 107	D = -1
CCOc1ccc(/C=C/C(=O)Sc2ccc(Cl)cc2)cc1
  A = -8	B = 109	C = 107	D = nt
CCCNC(=O)CCc1nnc2ccc(N(CC)CC)nn12
  A = 8	B = 102	C = 100	D = 51
ON=C1CC2C3C/C(=N\O)C4C3CC2C14 (configuration not stated)
  A = -34	B = 104	C = 97	D = 3
CN(C)CCS(C)(=O)=O
  A = -13	B = 103	C = 100	D = -4
N#Cc1c(N2C(=O)C3C4C=CC(C4)C3C2=O)sc2c1CCCC2 (configuration not stated)
  A = -40	B = 103	C = 103	D = -15
CC1(C)CC(NC(=O)COC(=O)CCc2ccc(S(=O)(=O)N3CCCCC3)cc2)CC(C)(C)N1
  A = -8	B = 98	C = 101	D = 3
NC(=O)COC(=O)CCN1c2ccccc2Sc2ccccc21
  A = -3	B = 108	C = 109	D = -8
COc1cccc(/C=C2/Sc3ccc(C(=O)N4CC(C)CC(C)C4)cc3NC2=O)c1 (configuration not stated)
  A = -25	B = 101	C = 101	D = -3
CCN1C(=O)c2ccc(C(=O)Nc3nccs3)cc2C1=O
  A = -15	B = 98	C = 98	D = -3
O=C1/C(=C/c2cccnc2)SC(=S)N1C1CCCC1
  A = -25	B = nt	C = nt	D = 6
CC(C)CCNC(=O)Cn1c(=O)c2cccn2c2ccc(F)cc21
  A = -2	B = 103	C = 105	D = 18
COc1ccc(-c2ccc(=O)n(CC(=O)N(C)c3ccccc3)n2)cc1
  A = 10	B = 102	C = 107	D = -7
Oc1ccccc1C=Nc1ccc(Br)cc1
  A = nt	B = 100	C = 100	D = -9
CC(=O)Nc1cc2c(s1)CCCC2
  A = nt	B = 100	C = 102	D = -7
CCN(CC)c1ncnc2sc3c(c12)CCC3
  A = nt	B = 100	C = 103	D = 14
COc1ccc(C)cc1Nc1nc2ccc(C)cc2n2cnnc12
  A = -21	B = 105	C = 103	D = 10
CC(C)OC(=O)CNc1n[nH]c(=S)[nH]c1=O
  A = -20	B = 104	C = 100	D = 8
Nc1ccc(Sc2ccc(N)cc2)cc1
  A = -18	B = 101	C = 105	D = 5
CCCNC(=O)c1cc(C)c2c(C)nn(-c3ccccc3)c2n1
  A = -2	B = 106	C = 105	D = -13
O=C(Nc1ccncc1)OC1CCCC1
  A = -19	B = 103	C = 100	D = -8

# One compound at a time, from the list above. Order of screens: MenB inh, PV pol inh, PV pol inh intensity, MbtI inh
# CCCNC(=O)CCc1nnc2ccc(N(CC)CC)nn12 across the screens: 8, 102, 100, 51
# O=C(Nc1ccncc1)OC1CCCC1 across the screens: -19, 103, 100, -8
# CCN(CC)c1ncnc2sc3c(c12)CCC3 across the screens: nt, 100, 103, 14
# Nc1ccc(Sc2ccc(N)cc2)cc1 across the screens: -18, 101, 105, 5
# Cc1noc(C)c1CSc1nnc(-c2ccc(F)cc2)c2ccccc12 across the screens: -2, 100, 105, -6

# (list continues)
# Short forms – A = MenB inh; B = PV pol inh; C = PV pol inh intensity; D = MbtI inh
CC(C)(C)Nc1ncnc2c1sc1nc3c(cc12)COC(C)(C)C3
  A = -12	B = 99	C = 95	D = 9
c1cc[n+](C[n+]2ccccc2)cc1
  A = -6	B = 97	C = 97	D = -7
NC(=O)CSc1nc2scc(-c3ccco3)c2c(=O)n1-c1ccccc1
  A = 3	B = 102	C = 100	D = 183
CNC(=O)C1CCN(C(=O)N2CC(C)Oc3ccccc32)CC1 (configuration not stated)
  A = 6	B = 100	C = 98	D = 0
CNC(=O)c1cccc(NC(=S)NC)c1
  A = 5	B = 103	C = 108	D = nt
Cc1cc(N(C)Cc2ccccc2)nc2cc(O)ccc12
  A = -18	B = 103	C = 96	D = 105
COc1cccc(-c2coc3cc4oc(=O)cc(C)c4cc23)c1
  A = 14	B = 104	C = 100	D = 4
O=C1c2ccccc2C(=O)N1Cc1ccncc1
  A = -16	B = 109	C = 111	D = -5
Fc1ccc(Cn2nnc3ccccc32)cc1
  A = -10	B = 102	C = 100	D = -190
C=CCn1c(CSc2nc3ccccc3s2)nnc1SCC(=O)NCCN1CCOCC1
  A = 28	B = 101	C = 100	D = 3
N#CC1=CN(Cc2ccccc2)C=C(/C=N/Nc2ccc(F)cc2)C1
  A = -133	B = 106	C = 111	D = -10
CCOC(=O)N1CCN(C(=O)c2noc3c2CCCC3)CC1
  A = -22	B = 106	C = 100	D = -15
CN(C(=O)CSC1=NCCS1)c1ccccc1
  A = nt	B = 102	C = 106	D = -6
CCn1nnc(NC(=O)Cc2ccccc2)n1
  A = -7	B = 108	C = 111	D = nt
Cc1c(C=Nc2ccc(C(C)C)cc2)sc2ccccc12
  A = -49	B = 105	C = 106	D = -14
COc1cccc(C=Nc2ccccc2N2C(=O)c3ccccc3C2=O)c1O
  A = -23	B = 107	C = 106	D = 1
Cc1onc(-c2ccccc2)c1C(=O)N1CCCSC1=Nc1ccccc1
  A = -22	B = 108	C = 110	D = 13
CCCOc1ccc(C(=O)CCC(N)=O)cc1
  A = 5	B = 110	C = 112	D = 9
COc1cc(S(=O)(=O)n2cccn2)c(OC)cc1Cl
  A = -3	B = 102	C = 102	D = -1
Cc1ccc(CN2CCN(N=Cc3ccccc3O)CC2)c(C)c1
  A = 3	B = 101	C = 103	D = 3
Cc1cccc(CSC(=N)N)c1
  A = -6	B = nt	C = nt	D = -10
Oc1ccc(/C=N\N2CCN(c3ccccc3)CC2)cc1
  A = 0	B = 101	C = 102	D = 3
CCOc1ccc2c(c1)OC(c1ccc(OC)cc1)(C(F)(F)F)NC2=O (configuration not stated)
  A = -13	B = 98	C = 100	D = -6
c1ccc(CCn2nnnc2C(c2cccnc2)N2CCCCC2)cc1 (configuration not stated)
  A = -12	B = 104	C = 102	D = -9
O=C(COn1nnc2ccc(S(=O)(=O)N3CCOCC3)cc21)N1CCCc2ccccc21
  A = -25	B = 106	C = 105	D = 3
CC(=O)N1c2ccccc2CC1C(=O)N1CCN(c2ccc(Cl)cc2)CC1 (configuration not stated)
  A = -20	B = 102	C = 101	D = -7
C=CCn1c(-c2ccc(OC)cc2)c(C)sc1=Nc1ccc(C)cc1
  A = -11	B = 101	C = 103	D = 5
O=c1ccc(N2CCCCC2)n[nH]1
  A = -20	B = 103	C = 102	D = 0
O=C(c1cccc(C(F)(F)F)c1)N1CCCc2ccccc21
  A = -28	B = 99	C = 100	D = 3
O=C(CN1CCN(S(=O)(=O)c2cccc(C(F)(F)F)c2)CC1)c1ccc[nH]1
  A = 0	B = 98	C = 107	D = -8
Cc1ccc2[nH]c(=O)c(CC3CC(c4ccccc4)=NN3C(=O)CCC(=O)O)cc2c1 (configuration not stated)
  A = -2	B = 102	C = 101	D = 9
CCCCOc1ccc(C(=O)NOCC(=O)NC2CCCCC2)cc1OC
  A = -16	B = 103	C = 101	D = 0
Oc1ccc(-c2nc3cc4ccccc4cc3nc2-c2ccccc2)cc1
  A = -87	B = 101	C = 106	D = 16
CCOC(=O)CSc1n[nH]c(CC)n1
  A = -15	B = 101	C = 100	D = 3
COCCn1cnc2ccccc21
  A = -4	B = 103	C = 111	D = -8
CN1C(=O)Cc2cc(S(=O)(=O)Nc3ccc(N4CCOCC4)cc3)ccc21
  A = -54	B = 104	C = 102	D = -1
C=CCN(CC=C)S(=O)(=O)Cc1ccc(Cl)cc1
  A = 4	B = 99	C = 97	D = 3
Cc1cccn2cc(CNC(=O)COc3ccccc3)nc12
  A = -20	B = 105	C = 107	D = 103
Cc1ccc2oc(=O)c3cc(C(=O)N(C)CCC#N)sc3c2c1
  A = 7	B = 100	C = 101	D = 16
O=c1cc(O)n(-c2ccccc2)c(=S)[nH]1
  A = -157	B = 100	C = 99	D = 12
Cc1ccc(C(C)C)cc1S(=O)(=O)NCc1ccc2c(c1)OCO2
  A = -26	B = 99	C = 104	D = -5
O=C(OCc1ccccc1)c1cc2cc(Br)cc(Br)c2oc1=O
  A = 5	B = 100	C = 108	D = nt
Cn1nc(SCC(=O)O)c(=O)n(C)c1=O
  A = -3	B = 103	C = 105	D = 3
Cc1ccccc1NC(=O)Cn1c(=O)n(Cc2ccc(F)cc2)c(=O)c2cccnc21
  A = -8	B = 104	C = 102	D = -7
O=C(N/N=C(\Cc1ncc[nH]1)c1ccccc1)c1ccncc1
  A = -66	B = nt	C = nt	D = 1
COC(=O)C1=C(C)N(Cc2ccccc2)C(=O)/C1=C\c1cccc(O)c1
  A = -69	B = 104	C = 102	D = 3
CC(C)(O)C(=O)/C=C/c1ccc2c(c1)OCO2
  A = -76	B = 99	C = 98	D = 5
Cc1c(S(=O)(=O)Nc2ccc(Cl)cc2)sc2ccc(Cl)cc12
  A = -24	B = 101	C = 102	D = 0
COc1ccc2nc(N(CCN(C)C)C(=O)c3cccs3)sc2c1
  A = -16	B = 101	C = 96	D = 2
CCC1CCCCN1S(=O)(=O)c1ccc(S(=O)(=O)N2CCN(c3ncccn3)CC2)cc1 (configuration not stated)
  A = 1	B = 102	C = 104	D = 25

# (continued)
# Short forms – A = MenB inh; B = PV pol inh; C = PV pol inh intensity; D = MbtI inh
O=C(OCc1ccc2c(c1)OCO2)OCc1ccc2c(c1)OCO2
  A = -7	B = 102	C = 109	D = -16
Cc1nc(=S)[nH]c(C)c1CCC(=O)N1CCN(S(=O)(=O)c2ccc(F)cc2)CC1
  A = -63	B = 104	C = 92	D = 19
COc1ccc(N2CCN(C(=O)c3ccccc3N(C)S(C)(=O)=O)CC2)cc1
  A = -23	B = 103	C = 103	D = -3
O=C(c1cccc(Br)c1)N(Cc1cccs1)Cc1cccs1
  A = -14	B = 103	C = 105	D = -10
CC(Sc1n[nH]c(N)n1)C(=O)OC1CCCCC1 (configuration not stated)
  A = -37	B = 101	C = 102	D = -4
COc1ccc2oc(=O)c(/C(C)=N/O)cc2c1
  A = -25	B = 99	C = 107	D = -22
C=C(C)c1cccc(C(C)(C)NC(=O)Nc2ccccc2OC)c1
  A = -20	B = 105	C = 108	D = nt
CN(C)CCCn1c(N)nc2ccccc21
  A = 0	B = 102	C = 101	D = -8
CC(C)NC(=O)CSc1nc2ccccc2[nH]1
  A = 5	B = 102	C = 102	D = -11
CC(NC(=O)CSc1nnc(-c2ccc(F)cc2)o1)c1ccc(Br)cc1 (configuration not stated)
  A = -2	B = 106	C = 109	D = 28
O=C1C2C(c3ccccc3)C=CC(c3ccccc3)C2C(=O)N1c1cccc(Br)c1 (configuration not stated)
  A = -16	B = 102	C = 108	D = -13
O=C(O)CN1C(=O)/C(=C2/OC(=O)c3ccccc32)SC1=S
  A = -62	B = nt	C = nt	D = 13
CCCOc1ccc2oc(=O)c3c(c2c1)CCCN3C(=O)CN(CC)c1cccc(C)c1
  A = -15	B = 102	C = 99	D = 10
CCC(Sc1ccc2nnc(-c3ccccc3)n2n1)C(=O)OC (configuration not stated)
  A = -19	B = 100	C = 100	D = 52
Oc1ccc2c3c1OC1[C@@H](O)CC[C@@]4(O)[C@@H](C2)N(CC2CCC2)CC[C@]314 (some centres not stated)
  A = 1	B = 100	C = 100	D = -16
O=C(NCCCc1nc2ccccc2n1CCCOc1ccccc1)c1ccco1
  A = 4	B = 103	C = 107	D = 2
O=C(O)CCC(=O)Nc1nc2n(n1)C(c1ccccc1)CC(=O)N2 (configuration not stated)
  A = -16	B = 100	C = 95	D = -23
N#CC1(c2ccccc2Cl)C(=O)Nc2ccccc21 (configuration not stated)
  A = nt	B = 100	C = 98	D = -1
CC1(C)C(=O)Nc2ccccc2N1C(=O)COc1ccc(C#N)cc1
  A = 5	B = 103	C = 110	D = -21
COc1ccc(Cl)cc1NC(=O)CSCc1cnn(-c2ccccc2)c1-n1cccc1
  A = -5	B = 100	C = 101	D = -9
Cc1cc(S(=O)(=O)c2cc3ccc(O)c(C)c3oc2=O)ccc1F
  A = -38	B = 101	C = 108	D = -4
CSc1ccccc1NC(=O)CSc1ccccc1
  A = nt	B = 102	C = 104	D = -13
C=CCNc1nc(N2CCCCC2)nc(N2CCCCC2)n1
  A = -3	B = 103	C = 105	D = -22
C/C(N)=C(/C#N)C(=O)CSc1nncn1-c1ccccc1
  A = -11	B = 103	C = 110	D = 21
O=C(CCCN1C(=O)c2cccnc2Sc2ccccc21)N1CCCC1
  A = -6	B = 101	C = 103	D = -25
CC(c1ccccc1)N1C(=O)CC(Sc2ncccc2C(=O)O)C1=O (configuration not stated)
  A = -73	B = 102	C = 104	D = 10
Cc1ccccc1NC(=O)C1C(=O)N(CCO)C2(C)CC1c1ccccc1O2 (configuration not stated)
  A = -11	B = 103	C = 102	D = 6
CCCCNC(=O)c1cc2ccccc2s1
  A = -25	B = 101	C = 99	D = 10
CCOc1ccc(NC(=O)c2cc3c(=O)n(C)c4ccccc4c3n2C)cc1
  A = 3	B = 101	C = 104	D = 4
CCN1CCCC1CNC(=O)c1ccc2c(c1)[nH]c(=O)n2Cc1ccc(OC)cc1 (configuration not stated)
  A = -40	B = 104	C = 99	D = 6
CC(C)C(=O)OCC(=O)Nc1ccc(S(=O)(=O)N(C)C)cc1
  A = -5	B = 105	C = 112	D = -18

# Source: PubChem (ICCB-Longwood Screening Facility, Harvard Medical School)
